Screens (PubChem)
OX1R antag = antagonists of human orexin 1 receptor (OX1R); inhibition, % at 6.6 µM; actives 1.8% (n = 330,000); OX1R-expressing cells, FRET antagonist read-out; AID 485270, 2010; Orexin/Hypocretin receptor type 1 (Homo sapiens), O43613; in the data active = inhibition mostly above about 38%, no sharp cut-off; inactive = mostly below about 40%;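 note: 0% = agonist challenge alone and 100% = reference antagonist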
Target sequence (O43613 whole entry, looked up): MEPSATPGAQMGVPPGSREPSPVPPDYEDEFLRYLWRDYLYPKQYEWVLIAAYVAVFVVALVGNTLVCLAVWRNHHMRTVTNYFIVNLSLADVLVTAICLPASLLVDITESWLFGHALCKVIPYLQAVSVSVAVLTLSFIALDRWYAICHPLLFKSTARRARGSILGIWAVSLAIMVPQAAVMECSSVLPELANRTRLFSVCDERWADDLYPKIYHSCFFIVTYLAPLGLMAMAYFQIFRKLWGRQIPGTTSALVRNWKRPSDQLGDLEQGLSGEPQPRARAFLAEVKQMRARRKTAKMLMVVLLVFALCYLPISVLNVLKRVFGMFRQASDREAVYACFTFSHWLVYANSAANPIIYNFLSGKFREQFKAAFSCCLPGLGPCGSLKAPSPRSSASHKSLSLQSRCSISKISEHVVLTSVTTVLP
* marks the source's active call; other numbers are inactive results. An excerpt; most or all hits stand in other tables.

nr	structure	OX1R antag
1	COc1ccc(CCNC(=O)c2cccc(-n3cnnn3)c2)cc1	10
2	C/C(=N\NC(=O)c1cccc(N/N=C(\C)c2ccccc2)c1)c1ccccc1	11
3	COc1ccc(OC)c(NC(=O)COC(=O)CCC2CCCC2)c1	1
4	O=C(COC(=O)COc1ccc(Cl)cc1)NC1CC1	4
5	Cc1csc2nc(COC(=O)CNC(=O)c3ccc(Cl)cc3)cc(=O)n12	3
6	CN(c1ccc(OCC(=O)Nc2cc(Cl)ccc2C(=O)O)cc1)S(=O)(=O)c1ccc(F)cc1	28
7	O=C(COC(=O)/C=C/c1cccc(F)c1)NC1CCCC1	4
8	Cc1ccc(NC(=S)NC(=O)c2cccs2)cc1F	8
9	Cn1ccnc1SCC(=O)Nc1cccc(C#N)c1	3
10	O=C(O)/C=C\C(=O)O	9
11	CCN(CC)CCNC(=O)c1c(C)oc2cc(Br)c(OC)cc12	2
12	Cc1ccc(C(=O)CCC(=O)NNC(=O)c2ccccc2O)cc1	16
13	CCOC(=O)[C@H]1[C@H]2COc3ccccc3[C@@H]2N2C(=O)c3ccc(Cl)cc3NC(=O)[C@@]12C	25
14	Cc1noc(C)c1COc1ccccc1C(=O)N(C)CC(=O)Nc1ccc(F)c(F)c1F	3
15	Cc1cccc2sc(NC(=O)CNS(=O)(=O)c3ccc(Br)s3)nc12	37

nr	structure	OX1R antag
16	Cc1ccc(-c2nn(-c3ccccc3)cc2C(=O)NC2CCC(O)CC2)cc1 (stereo unspecified)	4
17	O=C(c1ccc(CNc2c(N3CCOCC3)c(=O)c2=O)cc1)N1CC=C(c2ccccc2)CC1	11
18	c1ccc2c(c1)[nH]c1c(N3CCSCC3)ncnc12	24
19	COC(=O)c1ccccc1NC(=O)CNc1ccc(F)c(S(=O)(=O)N2CCOCC2)c1	11
20	CSc1ncccc1C(=O)OCC(=O)NCc1cccs1	27
21	CCOc1ccccc1N1CC(C(=O)N2CCN(Cc3ccc(C#N)cc3)CC2)CC1=O (stereo unspecified)	2
22	CC1CC(C)(C)CC2(C1)NC(=O)N(CC(=O)Nc1cc([N+](=O)[O-])ccc1F)C2=O (stereo unspecified)	6
23	O=C(c1ccc(Cl)c(S(=O)(=O)N2CCCCCC2)c1)N1CCN(c2ccc(O)cc2)CC1	0
24	CCCCNc1c(-c2ccc(-c3cccc(Cl)c3)cc2)nc2ccc(Cl)cn12	15
25	COCCNC(=O)c1ccc(N2CCCCC2)c(NS(=O)(=O)c2ccc(C)cc2)c1	5
26	CCOC(=O)C1CCN(C(=O)C(C)Oc2ccc(C(=O)c3ccccc3)cc2)CC1 (stereo unspecified)	8
27	CCOc1ccccc1N1CCN(C(=O)c2ccccc2OCc2c(C)noc2C)CC1	-3
28	CCN(C(=O)COC(=O)c1ccc2ccccc2c1)c1c(N)n(Cc2ccccc2)c(=O)[nH]c1=O	4
29	Cc1ccc(C)c(S(=O)(=O)NCCC(=O)N2CCCC(C(N)=O)C2)c1 (stereo unspecified)	11
30	COc1cc([C@@H]2CC=C(C(=O)O)[C@H](c3ccc(F)cc3)N2S(=O)(=O)c2ccc(C)cc2)cc(OC)c1OC	5

nr	structure	OX1R antag
31	O=C1N[C@@H](Cc2ccccc2)C(=O)N2CCCC12 (stereo partly specified)	0
32	O=C(CC1OC(=O)c2ccccc21)NNC(=O)c1ccc(F)cc1 (stereo unspecified)	4
33	COc1cc(C(=O)OCC(=O)c2cc(C)n(CC3CCCO3)c2C)cc(OC)c1C (stereo unspecified)	23
34	O=C(/C=C/c1ccco1)N1CCN(S(=O)(=O)c2ccccc2)CC1	6
35	Cc1cccc(NS(=O)(=O)c2ccc(C)c(C(=O)N(C)C)c2)c1	3
36	CN(Cc1cccs1)C(=O)c1cccc(S(=O)(=O)N2CCCCCC2)c1	0
37	CC(C)(CO)Cc1cc(C(C)(C)C)c(O)c(C(C)(C)C)c1	15
38	CCOC(=O)C1CCN(C(C(=O)NC2CCCCC2)c2ccc(OC)cc2)CC1 (stereo unspecified)	11
39	CCOC(=O)N1CCC(NCCNC(=O)c2cccc(F)c2)CC1	5
40	Nc1ccc(-c2cc3ccccc3c(=O)o2)cc1	12
41	O=C(CN1C(=O)C2CCCCC2C1=O)Nc1cccc(C(F)(F)F)c1 (stereo unspecified)	4
42	COc1ccc(CNC(=O)CC2C[C@H](C(=O)N(C(C)C)C(C)C)[C@@]3(C)c4[nH]c5ccccc5c4CCN3C2=O)cc1OC (stereo partly specified)	-1
43	O=C(Cn1cnc2ccccc2c1=O)NNC(=O)c1cccc([N+](=O)[O-])c1	18
44	Cc1cccc(Oc2cc(NC(=O)Cn3cnc([N+](=O)[O-])n3)cc([N+](=O)[O-])c2)c1	11
45	O=C(NNC(=O)c1ccc(-c2ccc([N+](=O)[O-])cc2)o1)c1ccncc1	26

nr	structure	OX1R antag
46	Cc1cc(C(=O)COC(=O)c2ccc(F)cc2F)c(C)n1C1CC1	5
47	CN(C)C1=NC[C@H](Cc2ccccc2)N1CCc1ccc(F)cc1	6
48	CCOC(=O)[C@@H]1[C@H]2COc3cc(OC)ccc3[C@H]2N2C(=O)N(c3cccc(F)c3)C(=O)[C@]12C	-1
49	CC(C)c1ccc(NC(=O)COC(=O)c2cc(=O)[nH]c3ccccc23)cc1	7
50	CC1CCN(C(=O)COC(=O)C23CC4CC(CC(O)(C4)C2)C3)CC1	4
51	COc1ccccc1-n1c(SCC(=O)NC2CCS(=O)(=O)C2)nc2ccccc2c1=O (stereo unspecified)	3
52	Cc1cc(C)c(C(=O)COC(=O)c2nn(C)c(=O)c3ccccc23)cc1C	2
53	O=C(C[C@@H]1C/C=C\CCC(=O)OC[C@@H]2CCCN2C1=O)N[C@H](CO)Cc1ccccc1	1
54	CCOC(=O)c1ccc(NS(=O)(=O)c2c(C)n[nH]c2C)cc1	4
55	CN(C(=O)COC(=O)COc1ccc2ccccc2c1)c1c(N)n(Cc2ccccc2)c(=O)[nH]c1=O	13
56	Cc1ccc2nc(NC(=O)c3ccc(-c4nc5ccccc5s4)s3)sc2c1	10
57	O=P(O)(O)c1ccccc1OCCOCCOc1ccccc1P(=O)(O)O	4
58	COc1cccc([C@@H]2CC=C(C(=O)O)[C@H](c3ccc(F)cc3)N2S(=O)(=O)c2ccc(C)cc2)c1	15
59	COc1cc(NS(=O)(=O)c2cc(C(=O)NCCc3ccccn3)ccc2OC)cc(OC)c1	6
60	O=C(COC(=O)CCC(=O)c1cccs1)Nc1ccccc1C(F)(F)F	0

nr	structure	OX1R antag
61	Cc1ccc(NC(=O)COC(=O)CCNS(=O)(=O)c2c(Cl)cccc2Cl)cc1	7
62	CCCN(Cc1nnc(-c2cccs2)o1)C(=O)c1cc(S(=O)(=O)N2CCOCC2)ccc1C	10
63	CCC1CCCCN1C(=O)c1cc(S(=O)(=O)N2CCOCC2)ccc1C (stereo unspecified)	6
64	Cc1cccc(C(=O)NC(C(=O)Nc2cccc(S(=O)(=O)N3CCCC3)c2)C(C)C)c1 (stereo unspecified)	4
65	NS(=O)(=O)c1ccc(CCNC(=O)c2cc(-c3ccco3)nc3ccccc23)cc1	6
66	COc1ccc(NC(=O)COC(=O)CCC2CCCCC2)cc1	2
67	Cc1ccc(C2NC(=O)NC3=C2CCc2ccccc23)cc1 (stereo unspecified)	12
68	CN(C(=O)c1ccc(NC(=O)Cc2ccc(NC(=O)C3CCN(C(=O)CCc4ccccc4)CC3)cc2)cc1)C1CC1	3
69	CN(C)S(=O)(=O)c1cccc(NC(=O)CCc2nc3sc4c(c3c(=O)[nH]2)CCCC4)c1	5
70	CC(C)c1ccccc1	9
71	CCn1c(SCC(=O)NC2CC2)nnc1-c1cccs1	7
72	COCCNS(=O)(=O)c1ccc(-c2ccc(S(=O)(=O)NCCOC)cc2)cc1	4
73	COc1cccc(-c2ccc3ncnc(N(C)Cc4ccco4)c3c2)c1	16
74	CCOC(=O)[C@H]1[C@H]2COc3cc(OC)ccc3[C@@H]2N2C(=O)N(c3cccc(F)c3)C(=O)[C@@]12C	5
75	O=C(NN=Cc1ccc(F)cc1)c1cccc(S(=O)(=O)N2CCCC2)c1	11

nr	structure	OX1R antag
76	O=C(NCc1cccc2ccccc12)c1cccs1	4
77	NC(=O)c1ccc(NC(=O)COC(=O)c2ccc3c(c2)OCO3)cc1	9
78	O=C1CN(C(=O)COC(=O)c2ccc(Br)o2)c2ccccc2N1	2
79	Cc1ccc(S(=O)(=O)N2CCOCC2)cc1NC(=O)CSc1nnc(NC2CC2)s1	-1
80	Cc1ccc(S(=O)(=O)N2CCN(C(=O)CSc3ncn[nH]3)CC2)cc1	2
81	CCCCOc1ccc(C2(C)CC(=O)NC2=O)cc1 (stereo unspecified)	11
82	Cc1cccc(NS(=O)(=O)c2cccc(C(=O)NCc3ccccc3CN3CCOCC3)c2)c1	5
83	CC1CC(C)CN(S(=O)(=O)c2ccc(NC(=O)[C@@H]3CCCN3C(=O)c3cccs3)cc2)C1 (stereo partly specified)	0
84	Cc1noc(C)c1C(=O)OCC(=O)NCc1ccc(Cl)cc1	3
85	Cc1cc(Br)c(NC(=O)COC(=O)c2ccc[n+]([O-])c2)c(Br)c1	9
86	CCn1c(CCC(=O)O)nc2cc(S(=O)(=O)N3CCOCC3)ccc21	9
87	O=C(NCC(c1cccs1)N1CCOCC1)c1cn(-c2ccccc2)nc1-c1ccccc1 (stereo unspecified)	12
88	CC(CCc1ccccc1)NC(=O)CN1C(=O)NC2(CCCCC2C)C1=O (stereo unspecified)	-1
89	CN(C)S(=O)(=O)c1cc(NC(=O)COC(=O)c2ccc3c(c2)OCO3)ccc1Cl	11
90	C[C@@]12C(=O)Nc3ccc(F)cc3C(=O)N1[C@H]1c3cc(Br)ccc3OC[C@@H]1[C@@H]2c1ccccc1	33

Quoted at random: 6 records from the list
nr	structure	OX1R antag
84	Cc1noc(C)c1C(=O)OCC(=O)NCc1ccc(Cl)cc1	3
85	Cc1cc(Br)c(NC(=O)COC(=O)c2ccc[n+]([O-])c2)c(Br)c1	9
83	CC1CC(C)CN(S(=O)(=O)c2ccc(NC(=O)[C@@H]3CCCN3C(=O)c3cccs3)cc2)C1 (stereo partly specified)	0
88	CC(CCc1ccccc1)NC(=O)CN1C(=O)NC2(CCCCC2C)C1=O (stereo unspecified)	-1
82	Cc1cccc(NS(=O)(=O)c2cccc(C(=O)NCc3ccccc3CN3CCOCC3)c2)c1	5
81	CCCCOc1ccc(C2(C)CC(=O)NC2=O)cc1 (stereo unspecified)	11

Remaining list, next part.
nr	structure	OX1R antag
91	CC1CCN(S(=O)(=O)c2ccc3c(c2)C(=NO)c2cc(S(=O)(=O)N4CCC(C)CC4)ccc2-3)CC1	18
92	COc1ccc(NC(=O)c2ccc(-c3ccc(-c4noc(C)n4)cc3C)cc2)cc1N1CCN(C)CC1	10
93	O=C(CN1CCN(S(=O)(=O)c2ccc(F)c(Cl)c2)CC1)N1CCc2ccccc21	10
94	CCOC(=O)C1=C(COC(=O)c2ccco2)NC(=O)NC1CC (stereo unspecified)	-3
95	CC1CCN(S(=O)(=O)c2ccc(C(=O)N3CCCCC3C(=O)O)cc2)CC1 (stereo unspecified)	10
96	C#CCOCCOCCOCCNc1nc(N2CCN(C(=O)[C@H]([C@@H](C)CC)n3cc(CCCCN)nn3)CC2)nc(N2CCN(C(=O)[C@H](C)n3cc(CCCN=C(N)N)nn3)CC2)n1	19
97	COc1cc2cnc(CCCC#N)cc2cc1OC	3
98	Cc1cc(N(C)C(=O)c2ccc3c(c2)S(=O)(=O)c2cc(Cl)ccc2C3=O)c(C(F)(F)F)o1	4
99	Cc1ccc(S(=O)(=O)NCCC(=O)NC2CCCCC2)cc1	9
100	O=C(COc1ccccc1)NNC(=O)c1ccc(Cl)cc1	-1
101	O=C(COC(=O)C1CCC1)Nc1ccc(Cl)cn1	11
102	Cc1cccc(C)c1NC(=O)CN1CCN(C(=O)CNC(=O)c2ccc(N3CCCC3=O)cc2)CC1	-1
103	CCC1CCCCN1C(=O)COC(=O)c1cc(C)nc2ccccc12 (stereo unspecified)	12
104	O=C1NCCOC(=O)[C@@H](Cc2ccc(F)cc2)CC/C=C/C[C@@H]1CC(=O)N(CCO)Cc1ccccc1	17
105	CN(C)C(=O)CSc1nc2cc(S(=O)(=O)N3CCOCC3)ccc2o1	1

nr	structure	OX1R antag
106	CCN(CC(=O)Nc1ccc2c(c1)OCO2)CC(=O)Nc1ccccc1C(F)(F)F	5
107	Cc1cc(C)nc(SCC(=O)NC(=O)c2ccccc2O)n1	2
108	Cc1nc(SCC(=O)Nc2ccc(CN3CCCC3)cc2)c2c(C)c(C)sc2n1	6
109	O=C(c1ccccc1F)N1CCN(S(=O)(=O)c2ccc(S(=O)(=O)N3CCCCC3)cc2)CC1	5
110	Cn1c(N)c(C(=O)COC(=O)/C=C/c2cccc(C(F)(F)F)c2)c(=O)n(C)c1=O	6
111	Cc1noc(C)c1S(=O)(=O)N(C)C[C@H]1Oc2c(NC(=O)NC(C)C)cccc2C(=O)N([C@H](C)CO)C[C@@H]1C	9
112	Cc1cccc(N2CC(C(=O)NC3CCCCCC3)CC2=O)c1C (stereo unspecified)	-1
113	O=C(NCCOc1ccccc1F)c1ccc2c(=O)n3c(nc2c1)CCC3	-1
114	COc1ccccc1C(=O)NC(CCSC)C(=O)NNC(=O)c1ccccc1O (stereo unspecified)	-1
115	O=C(O)c1ccccc1C(=O)O	3
116	O=C1C=C(c2cccc(Cl)c2O)C[C@@H](c2ccc(F)cc2)C1	6
117	CCOc1cc(C2NN=C(c3ccc(C)cc3)S2)ccc1O (stereo unspecified)	15
118	Cc1noc(C)c1S(=O)(=O)N(C)C[C@H]1Oc2ccc(NC(=O)Cn3cnnn3)cc2C(=O)N([C@H](C)CO)C[C@@H]1C	6
119	O=S(=O)(c1ccc(Br)cc1Cl)N1CCCN(c2ccc(C(F)(F)F)cn2)CC1	15
120	Cc1cc(C)cc(-c2nnc(SCC(=O)NC3CC3)o2)c1	2
